AF4-AF9 inh: inhibitors of AF4 peptide binding to AF9, primary screen, biochemical, AlphaScreen, biotin-AF4 peptide, FLAG-AF9, single point; Protein AF-9 (Homo sapiens), P42568; inhibition, % at 10 µM; hit rate 0.47% among 350,000;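 active = every replicate reaching a set inhibition limit, whatever the replicate mean, cut at about 25% in these data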;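 note: 0% = plate neutral control median and 100% = total signal loss; the record names both 10 and 1 µM as test concentration; the first replicate is given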
Target sequence (P42568 whole entry, looked up): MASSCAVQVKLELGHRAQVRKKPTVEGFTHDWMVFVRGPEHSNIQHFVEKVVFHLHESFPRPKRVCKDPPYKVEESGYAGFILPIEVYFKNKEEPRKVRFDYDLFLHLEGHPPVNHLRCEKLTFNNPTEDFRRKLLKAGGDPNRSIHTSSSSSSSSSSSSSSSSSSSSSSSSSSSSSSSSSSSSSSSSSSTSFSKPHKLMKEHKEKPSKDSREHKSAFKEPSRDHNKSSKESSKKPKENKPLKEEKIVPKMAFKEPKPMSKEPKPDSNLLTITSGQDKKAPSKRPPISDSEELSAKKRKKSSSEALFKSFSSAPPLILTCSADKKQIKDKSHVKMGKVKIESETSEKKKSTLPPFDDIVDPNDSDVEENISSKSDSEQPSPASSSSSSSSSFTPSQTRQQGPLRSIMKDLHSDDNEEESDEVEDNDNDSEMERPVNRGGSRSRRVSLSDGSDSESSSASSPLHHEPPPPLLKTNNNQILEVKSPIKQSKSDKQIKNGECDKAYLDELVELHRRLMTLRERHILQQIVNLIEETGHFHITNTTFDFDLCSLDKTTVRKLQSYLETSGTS
Ecoli rRNA inh: reduced GFP signal of wild-type E. coli, primary screen, bacterial rRNA inhibitor project, GFP/RFP fluorescence, OD600, single point; E. coli WT GFP vs humanized-ribosome RFP mutants, 24 h; hits give low values; DMSO median 0, no signal -100; hit rate 1.6% among 350,000; GFP signal change (wild-type ribosome), % (concentration not given with the values); AID 720706, 2013;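 active = significant combined selectivity score with lowered wild-type GFP, culture density cut under 30%, mutant RFP and density less affected; inactive = any of these conditions unmet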; note: one replicate is shown; some compounds called inactive have numbers as strong as hits
Ecoli rRNA inh OD600: further read-out of Ecoli rRNA inh, marked with its call; OD600 change, %; measured here: OD600 growth;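 optical density of the mix in the first replicate; 0 = DMSO median and -100 = no signal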
Ecoli rRNA inh RFP: further read-out of Ecoli rRNA inh, marked with its call; RFP signal change, %; measured here: RFP humanized mutant strains;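 first replicate; 0 = DMSO median and -100 = no signal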
* marks the source's active call; other numbers are inactive results; & = joins results of further samples. Not all compounds are listed; rates above refer to the full screens.

item	AF4-AF9 inh	Ecoli rRNA inh	Ecoli rRNA inh OD600	Ecoli rRNA inh RFP	canonical_smiles
1	0.3	1.7	4.3	-0.5	C[C@H]1CN([C@@H](C)CO)C(=O)c2cccc(NC(=O)Nc3cccc4ccccc34)c2O[C@H]1CN(C)S(=O)(=O)c1ccccc1
2	11.3	2.5	16.1	8.0	Cc1ccc(S(=O)(=O)N2C[C@H](O)COC[C@@H]3O[C@H](CC(=O)NCC4CCCCC4)CC[C@H]32)cc1
3	-0.4	-2.5	-10.2	-2.5	O=C(CN1CCOCC1)NCC[C@@H]1CC[C@@H](NC(=O)Nc2ccc(Cl)cc2)[C@H](CO)O1
4	-3.1	4.5	0.6	-2.7	O=C(C[C@H]1C=C[C@@H](NS(=O)(=O)c2ccccc2)[C@@H](CO)O1)NCc1ccncn1
5	-2.4	-1.0	-6.3	2.7	CN(C)Cc1cn(CC[C@@H]2CC[C@H](NS(=O)(=O)c3ccc(-c4ccccc4)cc3)[C@@H](CO)O2)nn1
6	-3.9	3.5	16.4	-1.7	CC(C)NC(=O)Nc1ccc2c(c1)CC(=O)N([C@@H](C)CO)C[C@H](C)[C@H](CN(C)C(=O)Nc1ccccc1)O2
7	-1.1	0.5	3.3	-2.9	C[C@H](CO)N1C[C@H](C)[C@@H](CN(C)C(=O)Cc2ccccn2)Oc2ncc(-c3ccc(F)cc3)cc2C1=O
8	0.9	4.7	19.6	-1.9	O=C(CC(F)(F)F)N1C[C@@H]2[C@H](c3ccccc31)[C@@H](CO)N2C(=O)CN1CCOCC1
9	-6.3	5.5	6.2	4.1	Cc1ccccc1S(=O)(=O)N1CC(=O)N2[C@H](C1)[C@@H](c1ccc(C#Cc3ccccc3)cc1)[C@@H]2CO
10	-3.0	-4.2	-0.2	0.3	C[C@H](CO)N1C[C@H](C)[C@H](CN(C)C(=O)c2ccccc2)OCCCC[C@H](C)Oc2ccc(NC(=O)c3ccccc3)cc2C1=O
11	-5.5	3.5	2.3	-0.7	O=C(O)C[C@@H]1C[C@H]2c3cc(NC(=O)Nc4ccccc4)ccc3O[C@H]2[C@H](CO)O1
12	-14.1	2.0	-2.8	-2.2	C[C@H](CO)N1C[C@H](C)[C@H](CN(C)S(=O)(=O)c2ccc(Cl)cc2)Oc2ccc(NC(=O)Cc3cn(C)c4ccccc34)cc2C1=O
13	-3.1	2.2	7.9	-0.3	COCC(=O)N1CC2(C1)[C@H](c1ccccc1)[C@@H](CO)N2C(=O)c1cccnc1
14	8.0	1.3	5.0	-0.3	C[C@@H]1CN([C@H](C)CO)C(=O)Cc2cc(NC(=O)Cc3cn(C)c4ccccc34)ccc2O[C@@H]1CN(C)CC1CC1
15	-5.0	0.0	-4.9	3.0	O=C(Nc1ccc(Cl)cc1)N[C@H]1CC[C@H](CCNC(=O)c2ccccc2F)O[C@@H]1CO
16	-0.9	1.1	10.8	-3.4	CCCC(=O)N1CC2(C1)CN(C(=O)Nc1c(C)noc1C)[C@@H](CO)c1c2c2ccc(OC)cc2n1C

3 compounds already listed, ordered by their value in Ecoli rRNA inh OD600, low to high:
| no. | mol | Ecoli rRNA inh OD600 |
| --- | --- | --- |
| 12 | C[C@H](CO)N1C[C@H](C)[C@H](CN(C)S(=O)(=O)c2ccc(Cl)cc2)Oc2ccc(NC(=O)Cc3cn(C)c4ccccc34)cc2C1=O | -2.8 |
| 9 | Cc1ccccc1S(=O)(=O)N1CC(=O)N2[C@H](C1)[C@@H](c1ccc(C#Cc3ccccc3)cc1)[C@@H]2CO | 6.2 |
| 13 | COCC(=O)N1CC2(C1)[C@H](c1ccccc1)[C@@H](CO)N2C(=O)c1cccnc1 | 7.9 |

Other structures.
item	AF4-AF9 inh	Ecoli rRNA inh	Ecoli rRNA inh OD600	Ecoli rRNA inh RFP	canonical_smiles
17	-0.8	4.5	6.2	-0.3	CCCN1C[C@@H](C)[C@@H](OC)CN(C)C(=O)c2cc(NC(=O)c3ccccc3F)ccc2OC[C@@H]1C
18	-37.6	6.0	9.1	-0.8	C[C@@H]1CN([C@H](C)CO)C(=O)Cc2cc(NC(=O)CCCN(C)C)ccc2O[C@H]1CN(C)C(=O)Nc1ccc2c(c1)OCO2
19	-1.9&-10.2	-0.1&10.1	11.9&3.3	0.3&-0.6	COc1ccc(NC(=O)N[C@H]2CC[C@@H](CC(=O)NC3CCC3)O[C@@H]2CO)cc1
20	-0.8	-5.8	-8.1	-7.6	CCC(=O)N1C[C@H](O)COC[C@H]2O[C@@H](CC(=O)NCc3ccc(Oc4ccccc4)cc3)CC[C@@H]21
21	-0.5	1.2	4.1	-2.2	CO[C@@H]1CN(C)C(=O)c2ccc(NC(C)=O)cc2OC[C@H](C)N(C(=O)c2ccccn2)C[C@@H]1C
22	-1.6	3.0	0.3	-1.0	COc1cccc(NC(=O)N2C[C@@H](O)COC[C@H]3O[C@@H](CC(=O)NCCCN4CCOCC4)CC[C@@H]32)c1
23	-0.5	-0.5	-4.2	-0.8	O=C(C[C@H]1CC[C@@H]2NC[C@H](O)COC[C@H]2O1)NC1Cc2ccccc2C1
24	-6.5	14.3	20.8	-2.3	Cn1c(NCc2ccccc2F)nc2cc(-c3cccc(C(F)(F)F)c3)sc2c1=O
25	2.2	1.3	-8.9	-0.3	O=C(c1cccnc1)N1CC(=O)N2[C@H](CO)[C@H](c3ccc(/C=C/c4ccccc4)cc3)[C@@H]2C1
26	3.2	-7.0	-14.6	5.6	COc1ccccc1-c1ccc2c(c1)O[C@H](CN(C)C(=O)Nc1cccc(F)c1)[C@@H](C)CN([C@@H](C)CO)S2(=O)=O
27	-0.7	21.9	16.8	3.2	Nc1nc2c(ncn2[C@@H]2O[C@H](CNCc3cnc(N4CCOCC4)nc3)[C@@H](O)[C@H]2O)c(=O)[nH]1
28	60.8*	-1.6	-2.0	-1.6	C[C@@H]1CCCCO[C@H](CN(C)Cc2ccc(Cl)c(Cl)c2)[C@@H](C)CN([C@@H](C)CO)C(=O)c2cc(N(C)C)ccc2O1
29	0.0	-56.5	-74.3	16.9	O=C(Nc1ccc(Cl)c(Cl)c1)N[C@@H]1CC[C@@H](CCn2cc(C3CCCC3)nn2)O[C@H]1CO
30	-1.4	-2.2	0.1	1.3	C[C@H]1CN([C@@H](C)CO)C(=O)Cc2cc(NC(=O)Cc3ccccc3)ccc2O[C@H]1CN(C)Cc1ccncc1
31	1.0	6.9	6.5	-3.3	Cc1cn([C@H]2C[C@H](O)[C@@H](CNCc3cccn3-c3ccncc3)O2)c(=O)[nH]c1=O
32	3.7	1.0	-1.9	-2.6	CCC(=O)N(C)C[C@@H]1Oc2cc(-c3cccnc3)ccc2S(=O)(=O)N([C@H](C)CO)C[C@H]1C
33	0.0	-0.4	11.4	-0.1	N#C[C@@H]1[C@H](c2ccccc2-c2cccc(F)c2)[C@H](CO)N1C(=O)C1CC1
34	1.3	-0.1	1.6	2.3	CC(C)NC(=O)N(C)C[C@@H]1Oc2cc(-c3ccccc3)ccc2S(=O)(=O)N([C@@H](C)CO)C[C@@H]1C
35	1.5	-5.0	-30.9	19.7	CCCNC(=O)N(C)C[C@@H]1Oc2cc(C#CCC(C)C)ccc2S(=O)(=O)N([C@@H](C)CO)C[C@@H]1C
36	-1.8	-5.5	-8.3	-0.5	C[C@H]1CN([C@@H](C)CO)C(=O)c2cc(NC(=O)Nc3ccc(F)cc3)ccc2O[C@H]1CN(C)S(=O)(=O)c1ccc(Cl)cc1
37	-0.7	-2.8	-7.4	2.2	Cc1ccc(S(=O)(=O)Nc2ccc3c(c2)C(=O)N([C@@H](C)CO)C[C@@H](C)[C@@H](CN(C)Cc2ccc(-c4ccccc4)cc2)O3)cc1
38	-3.8	-23.9*	-10.0*	0.9*	O=C(NCCc1ccccc1)c1cccc(NC(=O)c2ccccc2)c1
39	-1.7	3.1	8.5	1.4	COc1ccc(S(=O)(=O)Nc2ccc3c(c2)CC(=O)N([C@@H](C)CO)C[C@@H](C)[C@H](CN(C)Cc2ccc(C(=O)O)cc2)O3)cc1
40	2.9	2.0	6.2	-0.7	C[C@H]1CCCCO[C@H](CN(C)S(=O)(=O)c2cccs2)[C@@H](C)CN([C@@H](C)CO)C(=O)c2cc(NC(=O)Nc3ccc(C(F)(F)F)cc3)ccc2O1
41	3.7	-1.1	-0.7	0.2	CC(=O)N1[C@H](CNC(=O)C2CC2)[C@H](c2ccc(-c3ccccc3)cc2)[C@@H]1CO
42	-2.3	2.0	5.2	-0.3	COC(=O)[C@@H]1[C@@H](CO)[C@@H]2Cn3c(ccc(-c4ccc(F)cc4)c3=O)[C@@H]2N1C(=O)C1CCC1
43	-1.1	-9.6	-17.6	0.6	CCC(=O)N1CC2(C1)[C@H](c1ccccc1)[C@H](CO)N2Cc1cccc(Cl)c1
44	-1.3	1.0	8.0	-0.5	CN1C(=O)c2cc(NC(=O)c3cnccn3)ccc2OC[C@H]2O[C@@H](CC(=O)NC3CCC3)CC[C@H]21
45	-0.4	2.3	4.7	-2.0	O=C(C[C@H]1C[C@H]2c3cc(NS(=O)(=O)c4ccc(F)cc4)ccc3O[C@H]2[C@@H](CO)O1)NCc1ccccn1
46	-1.0	29.4	11.8	1.2	COC(=O)C1(C(=O)OC)C[C@H](c2ccccc2)N(Cc2ccccc2OC)[C@@H]1c1ccccc1
47	-2.0	0.8	-4.9	-0.7	C[C@H]1CN([C@@H](C)CO)C(=O)Cc2cc(NC(=O)Nc3ccc(F)cc3)ccc2O[C@@H]1CN(C)C(=O)Nc1ccc(F)cc1
48	1.0	-9.4	1.1	5.1	C[C@@H]1CCCCO[C@@H](CN(C)C(=O)c2ccccc2)[C@H](C)CN([C@H](C)CO)C(=O)c2cc(NS(=O)(=O)c3cccs3)ccc2O1

Rewritten with bars between the fields: part of the list above
No. | SMILES | AF4-AF9 inh | Ecoli rRNA inh | Ecoli rRNA inh OD600 | Ecoli rRNA inh RFP
42 | COC(=O)[C@@H]1[C@@H](CO)[C@@H]2Cn3c(ccc(-c4ccc(F)cc4)c3=O)[C@@H]2N1C(=O)C1CCC1 | -2.3 | 2.0 | 5.2 | -0.3
43 | CCC(=O)N1CC2(C1)[C@H](c1ccccc1)[C@H](CO)N2Cc1cccc(Cl)c1 | -1.1 | -9.6 | -17.6 | 0.6

(cont.)
item	AF4-AF9 inh	Ecoli rRNA inh	Ecoli rRNA inh OD600	Ecoli rRNA inh RFP	canonical_smiles
49	0.6	-11.6	-2.9	0.3	COc1ccc([C@H]2C[C@@H](n3cc(COC(=O)c4ccccc4)nn3)[C@H](O)CN2C(=O)C2CCCCC2)cc1
50	-0.1	4.0	6.3	-0.9	C[C@@H]1CN([C@@H](C)CO)C(=O)c2cccc(NS(=O)(=O)c3cccs3)c2O[C@H]1CN(C)CC1CCCCC1
51	-8.1	21.9	16.3	16.1	Cn1c(Nc2ccc(Cl)cc2F)nc2cc(-c3ccccc3)sc2c1=O
52	2.9	-0.3	-3.3	0.7	CO[C@@H]1CN(C)C(=O)c2cc(NC(=O)C3CC3)ccc2OC[C@@H](C)N(Cc2ccc(F)cc2)C[C@H]1C
53	-2.4	0.8	3.9	-1.7	C[C@@H]1CCCCO[C@H](CN(C)S(=O)(=O)c2cn(C)cn2)[C@@H](C)CN([C@H](C)CO)C(=O)c2cc(NC(=O)CCC(F)(F)F)ccc2O1
54	0.8	-7.0	-12.8	0.4	Cc1ccccc1-c1ccc([C@H]2[C@@H](CO)N3C(=O)CN(C(=O)c4ccccn4)C[C@@H]23)cc1
55	-2.5	3.2	2.1	-0.9	C[C@@H]1CCCCO[C@@H](CN(C)C(=O)NC2CCCCC2)[C@@H](C)CN([C@H](C)CO)C(=O)c2cc(NS(=O)(=O)c3cccs3)ccc2O1
56	-0.4	3.4	8.0	-5.8	C[C@H]1CN([C@@H](C)CO)C(=O)c2cc(Br)cnc2O[C@H]1CN(C)Cc1ccccc1

Along the list, from the results shown.
AF4-AF9 inh for entries 29 to 36 → 0.0, -1.4, 1.0, 3.7, 0.0, 1.3, 1.5, -1.8

Carrying on:
item	AF4-AF9 inh	Ecoli rRNA inh	Ecoli rRNA inh OD600	Ecoli rRNA inh RFP	canonical_smiles
57	-2.3	5.1	7.5	-5.4	Cc1noc(C)c1Cn1c(C)c(C(=O)NCc2ccc3c(c2)OCCO3)sc1=O
58	-0.4	1.6	2.1	-2.9	COc1ccccc1NC(=O)N1CC(=O)N2[C@H](CO)[C@@H](c3ccc(-c4ccccc4)cc3)[C@H]2C1
59	1.0	-15.5	-45.5	30.8	Cc1nc2c(OCc3ccc(Cl)cc3)cccn2c1N(C)Cc1cccs1
60	-0.1	3.6	-1.0	-1.4	COCCNC(=O)C[C@@H]1CC[C@H]2[C@H](COc3ccc(NC(=O)Cc4ccccc4)cc3C(=O)N2C)O1
61	-2.0	0.8	-1.7	1.3	O=C(C[C@H]1CC[C@H]2[C@@H](COC[C@@H](O)CN2S(=O)(=O)c2cccc(F)c2)O1)NCCCN1CCOCC1
62	-1.1	-0.9	-10.5	-0.2	O=C(O)C[C@@H]1CC[C@H](NC(=O)CCN2CCCCC2)[C@@H](CO)O1
63	-1.2	1.8	-4.7	-0.9	CCCC(=O)Nc1ccc2c(c1)OC[C@H](C)N(C(=O)CC1CC1)C[C@H](C)[C@H](OC)CN(C)C2=O
64	0.7	-4.1	-12.6	0.1	C[C@@H]1CCCCO[C@H](CN(C)C(=O)Cc2ccccc2)[C@H](C)CN([C@@H](C)CO)C(=O)c2cc(NC(=O)Cc3ccccc3)ccc2O1
65	-3.2	3.6	-1.0	-1.1	Cc1noc(C)c1NC(=O)Nc1ccc2c(c1)CC(=O)N([C@@H](C)CO)C[C@@H](C)[C@@H](CN(C)Cc1ccncc1)O2

Source: PubChem BioAssay (Broad Institute)
